Sfp inh: qHTS Assay for Inhibitors of Bacillus subtilis Sfp phosphopantetheinyl transferase (PPTase) | Potency, µM, without a hit: max response, negative = inhibition, hits mostly inhibitors | 4'-phosphopantetheinyl transferase ffp (Bacillus subtilis), Q9F4F7 | Biochemical Sfp PPTase activity, qHTS | 310,000 tested, 3.5% active; active = well fitted inhibition curve with a large enough effect; inconclusive = small, poorly fitted or top-dose-only effect, or another doubt; inactive = no such curve, though single readings can be large or run the other way;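 note: the enzyme is Sfp with the accession as filed and its product quenches rhodamine fluorescence; potency is the fitted concentration of half-maximal effect; 0% = enzyme reaction without inhibitor and -100% = no enzyme wells; top concentration of the series not given in the record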
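After 15 min at room temperature with compound, 15 nM Sfp received 5 uM rhodamine-CoA plus 12.5 uM BHQ-2-ybbR (50 mM Hepes pH 7.6, 10 mM MgCl2). Rate came from the fluorescence difference over 30 min, ex 525/em 598 nm.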
ClpP mod: qHTS Assay for Activators of ClpP. purified B. subtilis ClpP, FRET peptide cleavage, 20 min. Potency, µM (series often up to 57.5 µM), without a hit: at the highest dose activity change, negative = active. 340,000 tested, 1.9% active. AID 651965, 2013; active = well fitted falling curve with a large enough effect; inconclusive = small, poorly fitted or top-dose-only effect; inactive = no such curve, though single readings can be large or run the other way; note: potency is the fitted concentration of half-maximal effect; the source files actives as falling curves though it sought activators and does not explain the sign; nearly all actives have a fitted effect of over 65% in size; many hits overshoot -100%
Target sequence (P80244 whole entry, looked up): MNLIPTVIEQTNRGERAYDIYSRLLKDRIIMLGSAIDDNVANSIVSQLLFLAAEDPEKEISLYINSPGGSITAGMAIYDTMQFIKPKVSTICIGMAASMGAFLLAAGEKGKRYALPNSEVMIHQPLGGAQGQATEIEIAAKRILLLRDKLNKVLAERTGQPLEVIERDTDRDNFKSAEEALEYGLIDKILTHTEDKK
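ClpP 10 microg/mL final, pH 8 Tris/KCl buffer with BSA, glycerol, Tween-20; compound pinned in; FRET-FV substrate; RT 20 min; Ex320/Em430; ΔFRET vs ADEP 5.8 microM, DMSO, no enzyme.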
Menin MLL FP FL: qHTS Assay for Inhibitors Targeting the Menin-MLL Interaction in MLL Related Leukemias: Competition With Fluorescein Labeled MLL-derived Peptide | Fluorescence polarization, fluorescein-MLL peptide displacement from menin | FP activity change, % at 61.4 µM | 290,000 tested, under 10 active | AID 1766, 2009; inconclusive = falling polarisation curve, or a change in total fluorescence; inactive = total fluorescence flat and polarisation flat or rising; no compound was filed as active; the % refers to the polarisation; negative = inhibition;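 note: % of control where 0% means no effect; inhibitors lower the polarisation; unlabelled MLL peptide was the positive control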
gsp antag: qHTS for Antagonists of gsp, the Etiologic Mutation Responsible for Fibrous Dysplasia/McCune-Albright Syndrome: qHTS; 340,000 tested, 0.4% active; gsp-mutant cells, cAMP HTRF, 30 min; control for the full effect not named in the record; Potency, µM (doses to about 76.9 µM), inactives show at the highest dose activity change, negative = inhibition, actives largely listed as inhibitors; AID 624288, 2012; active = falling curve of any shape with a large fitted effect; inconclusive = falling curve, mostly with a smaller effect; inactive = flat or rising curve; cell line not stated here;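 note: intracellular cAMP measured with PDE inhibitor Ro 20-1724 present during compound exposure; potency is the fitted concentration of half-maximal effect; % is set by controls: 0 for no effect and ±100 for the full control effect; nearly all actives have a fitted effect of over 65% in size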
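Cells in G418 medium, seeded 16-24 h, 37C; buffer exchange to DPBS + 1 mM CaCl2, 0.5 mM MgCl2, 0.05% BSA; cpds in DMSO + […] (300 uM stock), 30 min 37C; HTRF cAMP detection.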
CtBP-E1A inh: qHTS Assay for Inhibitors of the CtBP/E1A Interaction; AlphaScreen GST-E1A/His-CtBP binding, 1536-well; stronger effect = lower value; control for the full effect not named in the record; activity change, % (test concentration not listed); 340,000 tested, 0.49% active; in the data active means activity change below about -65%; inconclusive means about -30% to -65%; inactive means above about -30%; note: % is set by controls: 0 for no effect and ±100 for the full control effect; compound concentration not given in the record
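In 5 uL wells, 23 nL compound meets equimolar GST-E1A and His-CtBP (5X stock 125 nM each) for 2 h, 37 °C. Beads (5X, 50 ug/mL) then 1 h, 37 °C, dark.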
TRPV1 PAM: HTS Assay for Compounds that Act as Potentiators of the Vanilloid Receptor 1. TRPV1-expressing cells, Fluo-8 calcium influx, capsaicin EC20 potentiation; host cell line not named in the record; control for the full effect not named in the record. potentiation, % at 8.33 µM. 320,000 tested, 0.02% active; active means potentiation above 80%; inconclusive means 30% to 80%; inactive means below 30%; note: 0% is about no effect
Target sequence (Q8NER1 whole entry, looked up): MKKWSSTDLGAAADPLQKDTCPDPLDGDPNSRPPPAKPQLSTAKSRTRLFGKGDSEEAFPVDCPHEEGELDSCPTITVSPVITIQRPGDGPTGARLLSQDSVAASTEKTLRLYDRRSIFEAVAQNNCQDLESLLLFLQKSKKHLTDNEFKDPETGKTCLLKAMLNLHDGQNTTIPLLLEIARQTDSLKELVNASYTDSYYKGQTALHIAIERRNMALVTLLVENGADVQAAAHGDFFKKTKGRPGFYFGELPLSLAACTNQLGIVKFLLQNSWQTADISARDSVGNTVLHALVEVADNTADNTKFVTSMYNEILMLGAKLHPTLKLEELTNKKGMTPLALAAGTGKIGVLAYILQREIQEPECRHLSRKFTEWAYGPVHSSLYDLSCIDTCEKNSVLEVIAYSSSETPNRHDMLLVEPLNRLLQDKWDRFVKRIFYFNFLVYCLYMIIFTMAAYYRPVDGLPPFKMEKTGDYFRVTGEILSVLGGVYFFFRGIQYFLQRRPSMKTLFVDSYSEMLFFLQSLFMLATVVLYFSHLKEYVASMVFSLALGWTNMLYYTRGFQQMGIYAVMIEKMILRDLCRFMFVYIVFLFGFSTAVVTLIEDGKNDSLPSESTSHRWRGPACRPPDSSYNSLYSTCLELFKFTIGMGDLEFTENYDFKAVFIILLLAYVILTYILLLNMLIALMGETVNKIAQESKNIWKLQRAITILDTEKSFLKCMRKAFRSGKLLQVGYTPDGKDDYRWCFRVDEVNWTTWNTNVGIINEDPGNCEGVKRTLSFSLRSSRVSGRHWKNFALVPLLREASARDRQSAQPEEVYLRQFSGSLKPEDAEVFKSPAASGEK
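Fluo-8 calcium influx in TRPV1-expressing cells, kinetic read (ex 480/em 520 nm). Compound added and read 3 min for agonist activity, followed by capsaicin at EC20 final and 2 min further read for enhancement.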
gsp ag: qHTS for Agonist of gsp, the Etiologic Mutation Responsible for Fibrous Dysplasia/McCune-Albright Syndrome: qHTS; gsp mutant cells, cAMP HTRF, 30 min; control for the full effect not named in the record; Potency, µM (top dose mostly 76.9 µM), for the others: top-dose activation (cAMP increase), actives largely listed as activators; AID 624287, 2012; 340,000 tested, 0.13% active; active = well fitted activation curve with a large enough effect; inconclusive = small, poorly fitted or top-dose-only effect, or another doubt; inactive = no such curve, though single readings can be large or run the other way; cell line not stated here;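 note: phosphodiesterase inhibitor Ro 20-1724 added with compounds to block cAMP breakdown; potency is the fitted concentration of half-maximal effect; nearly all actives have a fitted effect of over 60% in size; about a fifth of the inactives were tested at one dose only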
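Cells in DMEM/10% FBS with G418 were pretreated with compounds in DMSO plus […] (300 uM stock) for 30 min at 37C. cAMP was measured by HTRF (cAMP-d2 plus anti-cAMP antibody-K) after 30 min at room temperature.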
An asterisk follows results filed as active; ? = inconclusive; / = no result given; [ ] = remark or other dose.

entry | Compound | Sfp inh | ClpP mod | CtBP-E1A inh | gsp antag | Menin MLL FP FL | TRPV1 PAM | gsp ag
1 | C(=N\Nc1nc(N2CCCC2)nc(N2CCCC2)n1)/c1cccnc1 | 1% | / | 6 | 3% | -0.1 | -7 | 10%
2 | CCCCOCCCNC(=O)c1c(-c2ccccc2)noc1C | 11% | -1.3% | 5 | 4% | 1.7 | 0 | -8%
3 | Cc1ccc(C)c(OCc2cc(C(=O)N3CCN(c4ccccc4C)CC3C)no2)c1 (configuration not stated) | 4% | 0.1% | 0 | 2% | 0.6 | -11 | 5%
4 | Cn1cc(CNC(=O)c2ccc3nc(Cc4ccccc4F)oc3c2)cn1 | 8% | -0.4% | 9 | 1% | / | -43 | 5%
5 | COC(=O)c1nnn(CC(=O)Nc2cc(Cl)ccc2C)c1C(=O)OC | 5% | 0.1% | 1 | 21% | 3.3 | 8 | 2%
6 | COc1ccccc1CNS(=O)(=O)c1ccc(NC(C)=O)cc1 | 9% | 1.0% | 10 | -4% | 2.0 | -5 | -39%[inhibitor]
7 | COc1ccc(/C=C2\CCC/C(=C\c3ccc(OC)c(OC)c3OC)C2=O)c(OC)c1OC | -23% | 0.4% | -6 | -8% | -0.9 | -1 | 12%
8 | COc1ccc(N2CCN(C(=O)c3cccc(Cn4cc(Cl)cn4)c3)CC2)cc1 | -21% | -20% | 0 | -12% | -2.8 | 6 | -64%[inhibitor]
9 | CC(c1ccccc1)N1CCn2c(nc3cc(NS(C)(=O)=O)ccc32)C1 (configuration not stated) | 10% | / | 4 | -4% | 1.8 | -4 | 24%[15.4 µM]
10 | Cc1csc(NC(=O)c2ccc(C(=O)Nc3nc(C)cs3)cc2)n1 | -7% | / | / | / | -1.0 | -9 | /
11 | CC(C)=CCC[C@](C)(O[C@@H]1O[C@H](CO[C@@H]2O[C@H](CO)[C@@H](O)[C@H](O)[C@H]2O)[C@@H](O)[C@H](O)[C@H]1O)C1CC[C@]2(C)C1C(=O)CC1[C@@]3(C)CC[C@H](O[C@H]4O[C@@H](CO)[C@H](O)[C@@H](O)[C@@H]4O)C(C)(C)C3CC[C@]12C (some centres not stated) | / | 0.5% | -1 | 11% | / | / | /
12 | CC1CCN(C(=O)Cn2c(=O)n(CCc3ccccc3)c(=O)c3ccccc32)CC1 | -2% | -6.5% | 3 | -21%[15.4 µM] | 3.8 | 9 | 1%
13 | c1nc(N2CCCCCC2)c2[nH]cnc2n1 | 15% | 0.5% | 5 | -5% | 2.3 | -25 | -6%
14 | Cc1ccc(CSc2nc3nc(C)cc(C)n3n2)cc1 | -7% | -1.3% | -1 | 4% | 1.8 | 2 | 20%[15.4 µM]
15 | CCOC(=O)C1CCCN(c2ncnc3c2oc2ccccc23)C1 (configuration not stated) | 0% | 352% | 4 | -33% | 1.3 | -7 | 7%
16 | O=C1c2cccc3cccc(c23)C(=O)N1CCCn1ccnc1 | / | -13% | -8 | -3% | / | / | ?
17 | CCOc1ccc(OCC)c(S(=O)(=O)n2cc(C)nc2CC)c1 | 5% | -20% | / | 2% | 1.2 | -11 | -25%
18 | C=CCn1c(SC2CCOC2=O)nc2scc(C3CC3)c2c1=O (configuration not stated) | -10% | 0.8% | 1 | 2% | 8.8 | 3 | -1%
19 | Cc1ccc2c(C)c(C(=O)N(C)CCC3CCCCO3)oc2c1C (configuration not stated) | -2% | / | 12 | -20% | / | -6 | 3%[15.4 µM]
20 | Cn1c(C(=O)N/N=C/c2ccccc2)cc2ccccc21 | 5% | -0.6% | / | -1% | 5.2 | -24 | ?
21 | O=C(c1ccc(Cl)cc1)N1CCCOC1 | 12% | -2.5% | -1 | 11% | 0.5 | ? | 1%
22 | N#CCc1ccc(NC(=O)c2ccccc2C(=O)Nc2ccc(CC#N)cc2)cc1 | 6% | / | 9 | 6% | -1.6 | -2 | 0%
23 | CC(=O)/C=C/c1ccccc1Oc1c(F)c(F)nc(F)c1F | 10% | -3.9% | -7 | 4% | 0.9 | -25 | 6%
24 | O=C(Nc1cccc(S(=O)(=O)N2CCCCC2)c1)c1ccc2ncsc2c1 | 5% | -3.0% | -22 | ? | 6.1 | -16 | ?

The list goes on; the last five above are carried over.
entry | Compound | Sfp inh | ClpP mod | CtBP-E1A inh | gsp antag | Menin MLL FP FL | TRPV1 PAM | gsp ag
20 | Cn1c(C(=O)N/N=C/c2ccccc2)cc2ccccc21 | 5% | -0.6% | / | -1% | 5.2 | -24 | ?
21 | O=C(c1ccc(Cl)cc1)N1CCCOC1 | 12% | -2.5% | -1 | 11% | 0.5 | ? | 1%
22 | N#CCc1ccc(NC(=O)c2ccccc2C(=O)Nc2ccc(CC#N)cc2)cc1 | 6% | / | 9 | 6% | -1.6 | -2 | 0%
23 | CC(=O)/C=C/c1ccccc1Oc1c(F)c(F)nc(F)c1F | 10% | -3.9% | -7 | 4% | 0.9 | -25 | 6%
24 | O=C(Nc1cccc(S(=O)(=O)N2CCCCC2)c1)c1ccc2ncsc2c1 | 5% | -3.0% | -22 | ? | 6.1 | -16 | ?
25 | Cc1ccc(Nc2nc(-c3ccc(C)cc3)c(CC(=O)O)s2)cc1 | -12% | 0.8% | 8 | ? | 2.9 | 10 | -33%[inhibitor]
26 | O=C(NNc1ccc([N+](=O)[O-])cc1[N+](=O)[O-])C1C2CCCCC21 (configuration not stated) | -1% | 1.7% | / | 7% | -1.2 | -6 | ?
27 | CCOc1ccc(C(C)NC(=O)C2CCC2)cc1 (configuration not stated) | 1% | 1.9% | -16 | 13% | 3.0 | -16 | ?
28 | COc1cc(C2C(C(N)=O)=C(C)Nc3nc(CCCO)nn32)cc(OC)c1OC (configuration not stated) | 18% | -0.3% | 1 | 8% | 4.7 | -9 | ?
29 | Cc1ccc(C(=O)Nc2cc(Cl)ccc2-n2cncn2)s1 | / | -3.2% | -5 | 1% | / | -6 | 7%[15.4 µM]
30 | COc1cccc(OC)c1-c1nn2c(-c3cc(-c4ccccc4)n[nH]3)nnc2s1 | ? | -8.3% | -3 | ? | 12 | 4 | 12%
31 | C=CCn1c(SCc2ccc([N+](=O)[O-])cc2)nnc1C(C)NC(=O)c1ccccc1 (configuration not stated) | -2% | -0.5% | 2 | 2% | 2.4 | 6 | ?
32 | COC(=O)c1c(N2C(=O)[C@H]3[C@@H](C2=O)[C@]2(C(=O)Nc4ccc(C)cc42)N2CCC[C@@H]32)sc(C)c1C | -2% | / | / | / | 1.8 | -8 | /
33 | COc1ccc(N(C(=O)c2snc(C(N)=O)c2N)C(C(=O)NCC2CCCO2)c2ccc(C)o2)cc1OC (configuration not stated) | 6% | / | -3 | -14% | 4.2 | 9 | -7%
34 | CCCCCC(=O)N1C[C@@H](O)[C@H](n2cc(-c3ccc(F)cc3)nn2)C[C@@H]1c1ccccc1 | / | -0.7% | 1 | / | / | / | -42%[inhibitor]
35 | Cc1ccc(S(=O)(=O)N(C)C[C@H]2Oc3ccc(NC(=O)C4CCCCC4)cc3C(=O)N([C@H](C)CO)C[C@H]2C)cc1 | / | -7.9% | -2 | -12% | / | / | /
36 | COc1cccc(C(=O)NC2CC(C)(C)Cc3c2cnn3-c2cccc(F)c2)c1OC (configuration not stated) | -1% | 14µM* | -2 | -11% | 0.1 | -14 | 12%[15.4 µM]
37 | COc1ccc(NC(=S)Nc2cc(C)ccn2)c(OC)c1 | 15% | -2.5% | -8 | 5% | 2.3 | 21 | -2%
38 | CC(=O)Nc1cccc(NS(=O)(=O)c2cn(C)c(=O)n(C)c2=O)c1 | 15% | 2.6% | 2 | 12% | 0.4 | -11 | 25%
39 | O=C(CSc1ccc(-c2ccc(F)cc2)nn1)NC1CCCCC1 | 23% | / | 18 | -9% | -3.5 | -1 | 8%[15.4 µM]
40 | CC(C)(C)CC(C)(C)NC(=S)Nc1ccc2nc(-c3ccccn3)c(-c3ccccn3)nc2c1 | -101% | -7.7% | -4 | -7% | ? | -8 | ?
41 | CCOC(=O)C1CCN(C(=O)c2ccccc2N(C)S(=O)(=O)c2ccccc2)CC1 | 4% | -5.1% | -6 | 5% | 5.4 | -8 | 17%
42 | CC(=O)Nc1ccc(CC(=O)NCCC(c2ccccc2)c2ccccc2)cc1 | -13% | / | -2 | 0% | 1.2 | -11 | 4%
43 | Cc1ccc(OCc2cc(C(=O)N3CCC(c4ccccc4Cl)C3)no2)cc1C (configuration not stated) | -1% | 0.3% | 29 | -9% | -2.8 | 27 | -3%
44 | CCCCN(C(=O)c1ccc(NC(=O)C(C)C)cc1)c1ccccc1 | 11% | / | 4 | 0% | 5.8 | -10 | -32%[inhibitor]
45 | O=C(NNC(=O)c1ccccc1-n1cccc1)c1ccc(Cl)nc1 | / | -1.3% | -6 | 4% | / | 1 | 0%
46 | O=C(NC(Cc1ccccc1)C(=O)O)/C(=C\c1ccco1)NC(=O)c1ccc(Br)cc1 (configuration not stated) | -65% | 1.2% | -4 | -8% | ? | 2 | 1%
47 | Cc1cc(=O)[nH]c(N=N/C(=N/Nc2ccccc2C)c2ccccc2)n1 | 7% | -2.6% | -11 | -7% | 0.4 | 5 | -2%
48 | COc1ccc(S(=O)(=O)N2CCCC(C(=O)N3CCN(Cc4ccccc4)CC3)C2)cc1Cl (configuration not stated) | / | -0.4% | -5 | / | / | / | -20%

Source: PubChem
